# Assay outcomes as filed in PubChem.
# Mtb hypoxia inh – PubChem AID 1159583; fluorescence inhibition, % (no concentration beside the values); M. tuberculosis hypoxia-regulated fluorescent reporter, fluorescence; 0.1% of 300,000 active;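 active = 35 to 45% if threefold the growth effect, above 45% if 1.5-fold the growth effect; inactive = the rest, general growth blockers included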;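 also: wells of about 50 µL received 100 nL stock; 0% = vehicle wells and 100% = reference inhibitor wells; whole bacteria with a GFP reporter of the hypoxia response; strong numbers were not always called active; many hits fall short of the cut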
# PrP UTR inh – inhibition of PrP 5' UTR reporter expression; cell-based PrP 5' UTR mRNA reporter, plate reader; inhibition, % (concentration not given with the values); 0.35% of 340,000 active;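 active = every replicate at 50% or more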;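 also: 0 = median of the neutral control wells; tested in H4 reporter cells; numbers are from one replicate; inactives centre near -14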
# Bead autofluor – compound fluorescence in toxin protease inhibitor counterscreen | compound autofluorescence counterscreen, microsphere flow cytometry; hits give high values | fluorescence intensity (no concentration beside the values) | 3.1% of 360,000 active | AID 624483;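 active = at least 3 SD above the mean of all compounds, about 16000 in these data; inconclusive = too few beads counted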;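 also: 100 nL of 1 mM stock went into each well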
# Sa ugtP lethal – growth inhibition of ugtP-null S. aureus, primary screen, RN4220 ugtP deletion, OD600; 16 h; some inactives read as strong as hits; growth inhibition, % (concentration not given with the values); 0.54% of 330,000 active; AID 1259309, 2017;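 active = z-score under -3 and OD600 up to 0.15 on both plates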;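 also: plate controls were untreated wells for no effect and antibiotic for full effect; wells of about 80 µL received 100 nL stock; the first replicate is given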
# BJeLR viability – MLPCN primary cell-based screen for lethality selective to Ras in HRASV12 cells; BJeLR (HRASV12) viability, CellTiter-Glo ATP luminescence, 48 h; reference of the scale not given here; inhibition, % (concentration not given with the values); 0.17% of 300,000 active;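 active = replicate mean above 50%; inconclusive = above 50% but judged a plate artefact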;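 also: 50 nL library stock added to about 25 µL; numbers are from one replicate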
# Sa RN4220 lethal – growth inhibition of S. aureus RN4220, primary screen, OD600. AID 1259311, 2017. 16 h. 0.33% of 330,000 active. inhibition, % (no concentration beside the values);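 active = z-score of -3 or lower and OD600 up to 0.18 on both plates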;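 also: plate controls were untreated cells for no effect and reference antibiotic for full effect; stock transfer was 100 nL into about 80 µL; one replicate is shown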
# Mtb hypoxia inh growth – recorded beside Mtb hypoxia inh, whose call it bears; growth inhibition, %; measured here: M. tuberculosis growth (absorbance);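 0% = vehicle and 100% = reference antibiotic; read after six days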
# Numbers without * were called inactive; ? = inconclusive; . = no result given.
SMILES,Mtb hypoxia inh,Mtb hypoxia inh growth,PrP UTR inh,Bead autofluor,Sa ugtP lethal,BJeLR viability,Sa RN4220 lethal
CCOC(=O)C1CCN(c2cc(C)nc3ccc(OC)cc23)CC1,0,11,1,3467,6,-6,5.4
O=S(=O)(c1ccc2c(c1)OCCO2)N1CC2CC1CN2S(=O)(=O)c1c(F)cccc1F (configuration not stated),8,17,.,.,1,.,3.0
CCCCn1c(N)c(N(CC(C)C)C(=O)c2ccc(N(C)S(=O)(=O)c3ccc(C)cc3)cc2)c(=O)[nH]c1=O,4,5,-19,6560,-6,-3,-1.4
O=C(CSc1nnc2scc(-c3ccc(Cl)cc3)n12)NCc1ccco1,7,7,-16,25480*,1,-1,2.6
CC(C)Cc1nnc(NS(=O)(=O)Cc2ccccc2)s1,5,2,-18,21019*,-4,8,4.8
CCc1ccccc1NC(=O)CCC(=O)N1CCSc2ccccc21,.,.,-2,5915,5,-8,5.0
O=C(c1sc2ccccc2c1Cl)N(Cc1ccccc1)C1CCS(=O)(=O)C1 (configuration not stated),3,12,-17,.,-2,-1,3.9
C=C1CCC2[C@](C)(CO)[C@H](O)CC[C@@]2(C)[C@@H]1C/C=C1\C(=O)OC[C@H]1O (some centres not stated),.,.,2,4402,5,0,0.6
CC=C(C)C(=O)Nc1cccc(C2=NOC3(C2)CC(C(N)=O)N(C(=O)C2(C)CC2)C3)c1 (configuration not stated),2,-1,.,.,-3,.,2.8
CN(Cc1ccccc1)S(=O)(=O)c1ccc(N2CCCC2=O)cc1,-2,4,-30,8494,3,.,9.2
CC(=NNC(=O)NC1CCCCC1)c1ccco1,.,.,.,.,2,.,1.6
CC(=O)NNc1ncnc2c1cnn2-c1ccc(C)c(C)c1,11,5,-21,4706,1,7,2.6
O=C1c2ccccc2NC(c2ccc(O)cc2)N1Cc1ccco1 (configuration not stated),7,8,8,?,13,6,6.4
O=C(Cn1c(C(F)(F)F)nc2ccccc21)c1ccc(Cl)cc1,10,7,-18,18546*,-7,7,-0.7
NNC(=O)c1n[nH]c(=O)c2ccccc12,6,-2,-7,4356,6,-15,0.6
CN1CCN(CC(O)COc2ccc(Cl)cc2)CC1 (configuration not stated),11,5,-13,3017,-4,2,6.6
CCCCc1ccc(/C=C(\C#N)C(N)=S)s1,-1,9,-13,4210,1,.,2.1
O=C(Nc1ccc(OCC(F)(F)C(F)F)c(C(F)(F)F)c1)c1ccccc1,.,.,-29,2463,-5,-13,-12
O=C(Nc1ccccc1)C1CC2CCCC(C1)C2=O (configuration not stated),12,4,-18,13025,-3,15,2.2
CC1Cc2nc(SCC(=O)NCCc3ccccc3)n(C)c(=O)c2S1 (configuration not stated),2,11,-48,5924,7,-1,3.5
O=CNc1ccc2c3c(cccc13)-c1ccccc1-2,-1,14,-25,3791,-2,.,-18
Cc1cccc2c(N=Nc3ccc(S(=O)(=O)Nc4ccc(Cl)cc4)cc3[N+](=O)[O-])c(O)[nH]c12,-7,-2,5,3322,-2,-2,4.5
O=c1[nH]cc(S(=O)(=O)Nc2ccc3c(c2)OCO3)c(=O)[nH]1,-6,0,-19,6751,0,6,3.8
O=C(c1ccccn1)N(Cc1cc2ccccc2[nH]c1=O)C1CCCCC1,.,.,6,4673,1,-8,0.1
Cc1ccc(N=C2C(=O)Nc3ccccc32)cc1,.,.,-25,3932,.,-6,.
Cc1ccc(C(=O)Nc2cc([N+](=O)[O-])ccc2F)s1,-2,6,-29,2330,-9,1,4.2
O=C(COC(=O)c1ccccc1C(=O)c1ccccc1)NCCc1ccccc1,3,6,-4,2488,5,1,-0.3
CCN1C(=O)NC(CCc2ccccc2)C(C(C)=O)=C1C (configuration not stated),1,6,.,.,3,.,5.2
COc1ccc(S(=O)(=O)N2CCOCC2)cc1NC(=O)Cc1ccc2c(c1)OCCO2,3,1,0,4654,2,.,2.3
CCC(=O)N1CCc2cc(S(=O)(=O)NCCC(=O)NC3CCCCCC3)ccc21,12,13,2,5450,3,7,3.6
Cc1noc(C)c1COc1ccc(CC(=O)NC2CCCCCC2)cc1,-6,2,-29,4524,6,1,0.6
N#C/C(=N\Nc1ccccc1)C(N)=S,.,.,-8,?,.,0,.
O=C(NC1(Cc2ccccc2)CCN(Cc2ccc(-c3ccccc3)cc2)C1=O)c1ccccc1 (configuration not stated),-5,-7,-20,4392,-3,.,-6.0
Cc1nnc(SCC(=O)NCc2ccccc2)[nH]c1=O,10,-9,6,17403*,3,-9,0.0
O=C(CCn1cccc1)Nc1cccc(F)c1,12,14,-9,3020,-6,3,3.5
CC(=O)c1cc(-c2ccccc2)n(CC(=O)NC(C)(C)C)c1C,8,4,-23,2560,-3,-3,2.1
CCOc1ccc(CCNC(=O)CCNC(=O)c2ccco2)cc1OCC,-7,-9,-2,?,18,-6,6.3
CCCNC(=O)Cn1sc2nc(C)cc(C)c2c1=O,11,7,-26,4297,6,0,1.5
O=C(NCC1CCCO1)c1onc(CSc2ccccc2)c1C(=O)O (configuration not stated),6,9,-32,3634,-5,-6,3.9
O=C(NC1CCN(C(=O)Nc2ccccc2Cl)CC1)c1ccccc1,8,5,-27,4461,-3,6,2.6
COc1cccc(C2=CC(=O)CC(c3ccc(Cl)cc3)C2)c1 (configuration not stated),22,6,.,.,3,.,-1.2
CN(C)c1cc[n+](CC(=O)N2CCCc3ccccc32)cc1,12,2,-28,2524,9,-1,5.1
OC1COC(c2ccccc2)OC1C(O)C1OC(c2ccccc2)OCC1O (configuration not stated),3,-1,-15,4205,5,.,2.4
COC(=O)c1cc(NC(C)=O)ccc1N1CCOCC1,8,-3,-6,2493,6,0,7.7
COc1ccccc1N1CCN(S(=O)(=O)c2cn(C)nc2C)CC1,8,0,-5,6603,-1,-7,1.4
CC(C)(C)SCCNC(=O)CN(c1ccc(F)c(Cl)c1)S(C)(=O)=O,6,1,-4,23547*,4,-7,6.5
O=C(N/N=C/c1c[nH]c2ccc(Br)cc12)c1ccn(Cc2ccc(Cl)cc2)n1,.,.,-25,2319,.,-5,.
Cc1cc(=O)oc2c(C)c(OC(C)C(=O)NCC3CCC(C(=O)O)CC3)ccc12 (configuration not stated),.,.,27,5760,-7,-7,1.9
O=C(NC1CCCC1)C(c1ccccc1)N(C(=O)c1ccno1)c1ccccc1 (configuration not stated),.,.,-23,2923,3,.,3.0
O=c1c(Br)c(N2CCCC2)cnn1-c1ccccc1,-4,-9,-43,8893,5,9,1.6
Clc1cccc(CN2CCC(Cc3ccccc3)CC2)c1,10,7,.,11209,8,-2,-4.3
O=C(COC(=O)Cc1ccccc1F)Nc1ccc(SC(F)F)cc1,5,5,-4,8477,5,-13,7.8
Cc1noc(C)c1CSCC(=O)N(C)CC(=O)Nc1ccc(Cl)c(Cl)c1,.,.,-20,6704,.,-3,.
CCN(CC)C(=O)CSc1ncnc2c1cnn2Cc1ccccc1,.,.,-10,4845,1,0,-0.2
CCc1ccc(/C([O-])=C(/C(=S)NCCN2CCOCC2)[n+]2ccccc2)cc1,1,1,-19,3293,9,1,11
CCC(C)c1ccc(NC(=O)C2CCN(c3ccc(C(F)(F)F)cn3)CC2)cc1 (configuration not stated),0,12,-7,2034,-5,0,8.4
Cn1c(COc2ccc(F)cc2)nnc1SCC(=O)NC1CC1,4,0,-9,5187,3,-3,-2.0
COc1ccc(C(=O)NCCNC(=O)c2cnccn2)cc1OC,1,-1,-4,3778,1,0,2.4
COc1ccc(C2=Nc3cc(C)ccc3OC2)cc1,.,.,-17,2711,.,15,.
N=c1c(C(=O)NC2CCCCC2)cc2c(=O)n3ccccc3nc2n1CCc1ccccc1,6,1,-24,3632,1,0,-0.9

# (cont.)
SMILES,Mtb hypoxia inh,Mtb hypoxia inh growth,PrP UTR inh,Bead autofluor,Sa ugtP lethal,BJeLR viability,Sa RN4220 lethal
O=C(Nc1ccccc1)C1=C[C@H](c2ccccc2)C[C@H](OCc2ccc(CO)cc2)O1,.,.,-12,4239,.,-1,.
Cc1ccc(/C=N/NC(=O)CSc2nc3nc(C)cc(C)n3n2)cc1,.,.,-16,10114,.,-7,.
CCOC(=O)C1=CN(CC)S(=O)(=O)NC1c1ccc(C(F)(F)F)cc1 (configuration not stated),-2,-4,4,3045,-1,.,-1.9
COc1cccc(-c2ccc3c(c2)S(=O)(=O)c2cccc(C(=O)O)c2C3=O)c1OC,17,7,-12,2867,2,.,5.4
O=C(CS(=O)CC(=O)Nc1ccccc1-c1ccccc1)Nc1ccc(F)cc1 (configuration not stated),0,2,-11,5445,3,5,1.1
CCOc1ccc(OCCOCCOc2ccccc2Cl)cc1,2,11,2,2016,22,-3,7.8
CC(=O)Nc1ccc(S(=O)(=O)N2CCN(C3CCCCCCC3)CC2)cc1,10,3,-7,6806,1,-3,-1.2
CCOc1cccc(-c2c(C(=O)NN=Cc3ccncc3)nnn2-c2nonc2N)c1,13,2,.,.,11,.,6.5
CCC12CN(S(=O)(=O)c3ccc(C)cc3)CC(CC)(CN(S(=O)(=O)c3ccc(C)cc3)C1)C2=O,2,5,-28,11486,0,-6,4.3
O=C1C(NS(=O)(=O)c2cccs2)=C(N2CCN(c3cccc(Cl)c3)CC2)C(=O)c2ccccc21,3,6,-21,2703,11,4,20
COC(=O)c1ccccc1NC(=O)COC(=O)c1ccco1,-4,0,-15,9984,-3,-1,-1.8
COc1cc(N2Cc3ccccc3C2)ccc1C=O,5,3,-52,3102,-9,-1,14
COCCn1c(COc2cccc(OC)c2)nnc1SCC(=O)N1CCOCC1,3,4,-31,14133,3,12,2.2
O=C(NCCc1ccccc1)c1ccc2c(c1)OCCO2,.,.,88*,5912,.,-2,.
COc1ccc(/C=C/C(=O)Oc2cc(C)[nH]c(=O)c2[N+](=O)[O-])cc1OC,0,6,-8,2097,7,-2,3.3
CCOC(=O)C1C2COc3ccc(Br)cc3C2N2C(=O)CN(Cc3ccccc3)C(=O)[C@@]12C (some centres not stated),11,11,.,.,3,.,6.8
Clc1ccccc1-c1nnc2sc(-c3ccc(Br)o3)nn12,17,7,-11,3518,0,-3,22
CC(=O)N(CCN(C(C)=O)c1ccccc1)c1ccccc1,0,-3,1,3766,-8,0,-0.9
CC1CCCN(C(=O)COC(=O)c2cc([N+](=O)[O-])ccc2N2CCOCC2)C1 (configuration not stated),5,-5,-21,6467,-1,8,0.5
Cc1onc(-c2c(F)cccc2Cl)c1C(=O)Nc1ccccc1N1CCOCC1,-11,-11,-33,4190,-5,-2,-1.2
COC(=O)C1=C(c2ccc(Cl)c(C(F)(F)F)c2)CC2CCC1N2C(=O)N1CCC(O)(c2ccc(Cl)cc2)CC1 (configuration not stated),7,7,.,.,-19,.,5.1
O=[N+]([O-])c1cc(Br)c(O)c(C=NNc2nc3ccccc3s2)c1,7,0,.,.,84*,.,67
O=C(Nc1cc(Cl)cc(Cl)c1)c1ccc(Cn2c(=O)[nH]c3ccsc3c2=O)cc1,-6,9,-44,5585,-3,3,20
Cc1cc(C)cc(NC(=O)CCOc2ccccc2)c1,16,13,-12,3503,1,-3,0.5
COC(=O)CCC(=O)OC1(C)C(=O)C=C2C=C(C3CC3)N(c3ccccc3)C=C2C1=O (configuration not stated),18,8,-20,3856,-1,5,5.7
Cc1ccc(C(=O)N/C(=C/c2ccc(Cl)cc2)C(=O)NCC2CCCO2)cc1 (configuration not stated),0,1,-7,2029,2,8,3.0
